# RE007 growth inh: less growth of the S. pombe RE007 Vpr strain; S. pombe RE007 Vpr strain, BacTiter-Glo ATP luminescence, 24 h; control for the full effect not named in the record; Potency, µM (highest dose often 92.2 µM), for inactives: at the highest dose activity change, negative = less growth; 0.21% of 360,000 active; AID 651644; active = well fitted falling curve with a large enough effect; inconclusive = small, poorly fitted or top-dose-only effect; inactive = no such curve, though single readings can be large or run the other way;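 note: nearly all actives have a fitted effect of over 50% in size; the assay follows cell death caused by Vpr and the record does not say whether a fall means rescue or toxicity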
#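 Fission yeast RE007 carrying one integrated HIV-1 vpr copy, seeded at OD 0.01 in PMG+AL medium with 23 nL pinned compound. Grown 24 h at 30 degrees; viability read by BacTiter-Glo luminescence after 5 min.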
# 2A StopGo: lowers the luciferase signal of an FMDV 2A StopGo reporter. human cells with a luciferase reporter of 2A StopGo recoding; control for the full effect not named in the record. Potency, µM (highest dose often 57.9 µM), inactives show at the top dose signal change, negative = less light. 1.2% of 410,000 active; active = well fitted falling curve with a large enough effect; inconclusive = small, poorly fitted or top-dose-only effect; inactive = no such curve, though single readings can be large or run the other way; tested in HEK293T cells; note: nearly all actives have a fitted effect of over 45% in size; luciferase light after 4 h
# * marks the source's active call; other numbers are inactive results; ? = inconclusive; & = joins results of further samples; [ ] = another dose, or the depositor's remark. % is set by controls: 0 for no effect and ±100 for the full control effect; potency is the fitted concentration of half-maximal effect. This is a subset; count on the stated rates, not on these rows.
# Every second line gives: RE007 growth inh, 2A StopGo
COc1ccc([C@@H]2CC(=O)c3c(O)cc(O[C@@H]4OC(CO[C@@H]5OC(C)[C@H](O)[C@H](O)C5O)[C@@H](O)[C@@H](O)C4O)cc3O2)cc1O (stereo partly drawn)
→ 0.0%[18.4 µM], -27.9%
COc1ccccc1NC(=O)Nc1nc(C(N)Cc2ccc(Cl)cc2)cs1 (stereo not drawn)
→ 4.8%, 0.0%
COc1ccc(NC(=O)c2cc(C3CCCCN3C(=O)c3cc(C(C)(C)C)nn3C)on2)c(C)c1 (stereo not drawn)
→ -18.7%, 0.0%
CC(C)COC(=O)N1Cc2ccccc2-n2nncc2C1
→ 23.1%, -14.9%
CCCCn1nnnc1C(c1ccccc1)N1CCN(c2cc(C)ccc2C)CC1 (stereo not drawn)
→ 2.3%, -24.8%
CC(C)(C)c1ccc(NC(=O)c2cc(C3CCCN(S(=O)(=O)c4cccc5cccnc45)C3)on2)cc1 (stereo not drawn)
→ -12.6%[18.4 µM], ?
COc1ccc(C)cc1NC(=O)ON=C1CCCCC1
→ 5.0%[18.4 µM], 42.6%[activator]
COc1cccc(-c2cnc3c(NC(C)=O)cc(-c4cccc(C(=O)N(C)C)c4)cn23)c1
→ -12.3%, 0.0%
Nc1[nH]c(C(=O)c2ccccc2)c(-c2cccnc2)c1C(=O)NC1CCCCC1
→ 3.6%, -22.1%
Cc1c(N=Cc2cc3c(cc2[N+](=O)[O-])OCO3)cccc1[N+](=O)[O-]
→ -5.8%, -1.6%
C[C@H](CO)N1C[C@H](C)[C@@H](CN(C)CC2CCOCC2)Oc2ncc(Br)cc2C1=O
→ -3.1%, -4.0%
COc1ccc([C@H]2N[C@]3(CCCN(Cc4ccc(F)cc4)C3=O)[C@H]3C(=O)N(C)C(=O)[C@@H]23)cc1
→ 15.8%, 0.0%
C[C@@H]1CN([C@@H](C)CO)C(=O)CCCn2nncc2CO[C@H]1CN(C)C(=O)Nc1ccc(N2CCCCC2)cc1
→ 9.6%, 0.8%
O=Cc1cccc(OCc2cn(CC(=O)c3ccc(O)cc3)nn2)c1
→ -9.7%, -4.7%
O=C1C2C3CC4C5C3C1C5C1(SCCS1)C42 (stereo not drawn)
→ 8.7%, 4.9%
COC(=O)[C@]12CCCCC=C1N(Cc1ccco1)C(=O)[C@H](CC(=O)NCc1cccc3ccccc13)C2
→ -7.7%, -18.8%
CCCc1nc2c3ccccc3ccn2c1Cc1ccccc1C(F)(F)F
→ ?, 8.7%
COC(=O)C1=CCCCC(O)=C1C(=O)OC
→ -9.0%, -21.1%
CCCCN1CC(COCc2ccccc2)Oc2cccc(OCCN3C(=O)[C@@H]4[C@H](C3=O)C3C=C[C@H]4C3)c2S1(=O)=O (stereo partly drawn)
→ 8.2%, -24.8%
O=C1C(=Cc2ccc(Cl)cc2)Cc2ccccc21
→ -5.6%, 28.3%
COc1ccc(CN2C(=O)C(CC(=O)NCCN3CCOCC3)CC(C(=O)N(C)C)=C2C)cc1 (stereo not drawn)
→ 1.1%, -3.1%
CN1C=CC(C(C(N)=O)c2ccccc2)c2ccccc21 (stereo not drawn)
→ -19.1%, -13.1%
Cc1nc(-c2cccc(CN(C)C(=O)Oc3ccc([N+](=O)[O-])cc3)c2)no1
→ -23.8%, ?
CC(C)N(c1ccccc1)c1ccc(NC(=O)[C@@H]2O[C@H](CO)[C@H](O)[C@H](O)[C@H]2O)cc1
→ -13.6%, -21.5%
CC(Cc1ccccc1)Nc1ncnc2c1ncn2C1OC(CO)C(O)C1O (stereo not drawn)
→ -4.6%, -20.9%
O=C(Nc1ccc2c(c1)OCCO2)C(CCc1ccccc1)N1CCC(Cc2ccccc2)CC1 (stereo not drawn)
→ 1.0%, 45.5%[activator]
CCCCCCCCN1C(=O)[C@H](CC(=O)NCCCN2CCCC2=O)C[C@@]2(C(=O)OC)CC(C)(C)CC=C12
→ -14.8%, -24.0%
CC(C)CC(=O)Nc1nnc(SCC(=O)NC2CCCC2)s1
→ 14.3%, -10.9%
CCOC(=O)[C@]12CCCC=C1N(Cc1ccccc1)C(=O)[C@H](CC(=O)NCc1cccc(C(F)(F)F)c1)C2
→ 9.5%, -11.4%
CN(Cc1ccccc1)C(=O)c1cccc(NC(=O)Cc2ccc(NC(=O)C3CCCN(C(=O)C4CCCC4)C3)cc2)c1 (stereo not drawn)
→ -1.4%, ?
COC(=O)C1(C(=O)OC)C[C@H](c2ccc(OC)cc2)N(Cc2ccccc2OC)[C@@H]1c1cccs1
→ 0.0%&0.0%, -19.6%&-26.7%
CCOC(=O)C1=CCN(S(=O)(=O)c2ccccc2)C1c1ccccc1 (stereo not drawn)
→ -14.3%, -18.0%
COc1cc(CCCN2C(=O)C(=O)NC[C@H]2Cc2cccc3ccccc23)cc(OC)c1OC
→ -4.4%, 4.1%
CC1(C(=O)Nc2ccc3c(c2)OCCO3)CN(S(C)(=O)=O)CC(=O)N1Cc1cccc(F)c1 (stereo not drawn)
→ 7.6%, -7.7%
CSc1ccccc1NC(=O)C1(C)CCN1C(=O)CCC1CCCC1 (stereo not drawn)
→ 6.0%[18.4 µM], -17.8%
O=C1CC[C@@H]2CC3(C[C@@H]4CCN1[C@H]24)Nc1cc([N+](=O)[O-])ccc1NC3=NC1CCCCC1 (stereo partly drawn)
→ -17.8%, -24.8%
CC(=O)Nc1cccc(NC(=O)c2cccc(Cl)c2)c1
→ 0.4%[18.4 µM], 8.0%
Cc1ccc2c(c1)C1(OCCCO1)C(=O)N2CC(=O)NN
→ -11.8%, 3.4%
O=C(Nc1ccc(F)c(Cl)c1)C1Cc2c(-c3ccc(Cl)cc3)ccnc2O1 (stereo not drawn)
→ -1.9%, ?
CC(C)C[C@@H](CN1CCC[C@@H]1CN1C(=O)C(=O)NC[C@@H]1Cc1ccccc1)N1C[C@H](Cc2ccccc2)N(CC2CCCCCC2)C(=O)C1=O
→ -2.9%, -1.5%
NC(=O)c1ncn([C@@H]2O[C@H](CNCc3cc(Br)ccc3OCc3ccccc3)[C@@H](O)[C@H]2O)n1
→ -1.2%, -10.3%
COc1cccc(C(O)c2nc(/C=C/c3ccc(C(F)(F)F)cc3)cs2)c1 (stereo not drawn)
→ -8.7%[18.4 µM], -20.9%
O=C(Nc1ccc2ccccc2c1)c1ccccc1Cl
→ -28.6%, 22.9%
CCn1c(C)cc(C(=O)COC(=O)CNC(=O)c2ccco2)c1C
→ -2.6%, -22.5%
CCOC(=O)C1(C)CCN1C(=O)c1c(F)cccc1F (stereo not drawn)
→ 4.6%[18.4 µM], -7.4%
CCOc1ccccc1NC(=O)CCNC(=O)N1CC(=O)Nc2ccccc21
→ -15.4%, 0.0%
O=C(NCCOc1ccc(F)cc1)C1CCC(=O)N(Cc2ccc(Cl)cc2)C1 (stereo not drawn)
→ 5.9%, -16.2%
CCc1ccc([C@H]2[C@@H]3C(=O)C[C@@H]4C(=O)N(c5ccccc5)C(=O)[C@@H]4[C@@H]3CN2S(=O)(=O)c2ccc(C)cc2)cc1
→ -6.6%, -21.4%
CCCCOCCCNC(=O)C[C@@H]1C[C@@]2(C(=O)OC)CC(C)(C)CC=C2N(Cc2ccco2)C1=O
→ -16.8%, -22.8%
Cc1ccc(OC(=O)N(C)C[C@H]2OCc3cnnn3CCCC(=O)N([C@@H](C)CO)C[C@H]2C)cc1
→ -2.5%, 4.9%
CC(C)(C)c1ccc(CC(=O)N2CCC2(C)C(=O)O)cc1 (stereo not drawn)
→ 7.4%[18.4 µM], -4.5%
CC1=C(C(=O)N2CCCCCC2)CC(CC(=O)NCc2cccc3ccccc23)C(=O)N1CCC1=CCCCC1 (stereo not drawn)
→ -6.3%, -18.2%
COc1ccc(OC)c(N2C(=O)c3ccccc3C2c2nnnn2-c2ccc3c(c2)OCCO3)c1 (stereo not drawn)
→ -10.2%, 13.2%
COc1cc(CN2C[C@@H](CO)O[C@@H](n3cnc4c(NCC(C)C)ncnc43)C2)cc(OC)c1OC
→ 29.6%, -15.1%
CCNC(=O)C1(C)CCCN(C(=O)c2nc3ccccc3s2)C1 (stereo not drawn)
→ 4.1%, -1.7%
COc1cccc(CNc2nc3cc(-c4cccc(C(=O)NCCO)c4)sc3c(=O)n2C)c1
→ -1.7%, -17.8%
Cc1cc(NC(=O)CSc2nnc3ccc(-c4ccccc4)nn23)no1
→ 9.1%, -12.6%
Cc1nc(Br)c(Br)n1Cc1ccccc1
→ 12.5%, -15.8%
COc1ccc(C2=Nc3ccccc3NC(=O)C2N(CCc2cc(OC)cc(OC)c2)C(C)=O)cc1 (stereo not drawn)
→ -14.3%, 15.9%
C[C@@H]1CN([C@H](C)CO)C(=O)CCCn2nncc2CO[C@H]1CN(C)C(=O)Nc1ccc(N2CCCCC2)cc1
→ 3.5%, -5.1%

# One compound at a time (already shown). Order of screens: RE007 growth inh	2A StopGo
# CN1C=CC(C(C(N)=O)c2ccccc2)c2ccccc21 (stereo not drawn) as listed: -19.1%	-13.1%
# CCn1c(C)cc(C(=O)COC(=O)CNC(=O)c2ccco2)c1C as listed: -2.6%	-22.5%

# Some values from the entries so far:
# In RE007 growth inh, Cc1nc(-c2cccc(CN(C)C(=O)Oc3ccc([N+](=O)[O-])cc3)c2)no1 shows -23.8%
# In RE007 growth inh, COc1ccc([C@@H]2CC(=O)c3c(O)cc(O[C@@H]4OC(CO[C@@H]5OC(C)[C@H](O)[C@H](O)C5O)[C@@H](O)[C@@H](O)C4O)cc3O2)cc1O (stereo partly drawn) shows 0.0%[18.4 µM]
# In RE007 growth inh, O=Cc1cccc(OCc2cn(CC(=O)c3ccc(O)cc3)nn2)c1 shows -9.7%
# In RE007 growth inh, O=C1C(=Cc2ccc(Cl)cc2)Cc2ccccc21 shows -5.6%

# Continued.
Molecule,RE007 growth inh,2A StopGo
Cc1ccc(-c2ccc3c(c2)O[C@H](CN(C)C(=O)CC2CC2)[C@H](C)CN([C@@H](C)CO)S3(=O)=O)cc1,14.9%,122.3%[activator]
COc1ccc(C(C)=O)cc1Cn1c(C)c(C(=O)NCc2ccc3c(c2)OCO3)sc1=O,-7.0%[18.4 µM],-1.5%
COc1ccc(C(C#N)=C2C=C(Cl)C(=NO)C=C2Cl)cc1,-8.7%,15.4%
CCOC(=O)C1=CCN(S(=O)(=O)c2ccc(F)cc2)C1c1cccc(Cl)c1 (stereo not drawn),3.4%,-23.9%
OC[C@@H]1CN(Cc2cccs2)C[C@H](n2cnc3c(N4CCCC4)ncnc32)O1,-7.7%,1.0%
C[C@@H]1CN([C@H](C)CO)C(=O)c2cc(Br)cnc2O[C@H]1CN(C)C(=O)c1ccccc1,-1.4%,-0.5%
O=C(NCc1ccccc1)C1=C[C@@H](c2ccccc2)C[C@@H](OCCCCO)O1,-7.2%,26.9%
COc1cccc(C(c2nnnn2C2CCCC2)N2CCN(C/C=C/c3ccccc3)CC2)c1OC (stereo not drawn),-11.6%,7.5%
C[C@H](CO)N1C[C@H](C)[C@@H](CN(C)S(=O)(=O)c2ccc(-n3cccn3)cc2)OCc2cn(nn2)CCCC1=O,7.4%,-11.4%
COC(=O)C1=C(c2ccc(S(C)(=O)=O)cc2)C[C@@H]2CC[C@H]1N2C(=O)NCCS(C)=O (stereo partly drawn),-1.5%,-3.0%
N#Cc1ccc(C(=O)N2Cc3cnnn3-c3ccccc3C2C#N)cc1 (stereo not drawn),3.6%,-17.7%
CCN1C(=O)c2cccc3c(S(=O)(=O)N(C)C)ccc1c23,-8.8%,-2.1%
CCN1CCN(S(=O)(=O)c2ccc(Cl)c(C(=O)N(C)CC(=O)Nc3c(C)cccc3C)c2)CC1,-15.6%,-4.9%
C#CCOCCOCCOCCNc1nc(N2CCN(C(=O)Cn3cc(CCO)nn3)CC2)nc(N2CCN(C(=O)[C@H](C)n3cc(CCCN=C(N)N)nn3)CC2)n1,-1.3%,-1.8%
Cc1cc(-c2cc(NC=O)c3ncc(-c4cccc(C(=O)NCCN(C)C)c4)n3c2)cc(C)c1O,-10.0%[18.4 µM],-1.2%
O=C(Nc1ccc(C(=O)N2CCCCC2)cc1)C1CC1,-1.3%,-8.8%
Cc1cc(C)n2c(NCc3ccccc3)c(CCc3ccccc3)nc2n1,?,-7.3%
CCOC(=O)c1oc2c(CN3CCN(C)CC3)c(O)c(CC)cc2c(=O)c1-c1nc2ccccc2s1,3.9%,-11.4%
COc1ccc(-c2csc(NCCc3nc4cc(C(=O)NCCCO)ccc4n3Cc3ccc(C)cc3)n2)cc1,10.8%,-17.8%
CC(=O)Nc1cc(-c2cccc(C(=O)N(C)C)c2)cn2c(-c3ccc(F)c(Cl)c3)cnc12,1.4%[18.4 µM],-22.2%
CCCCC[C@@H](C)N1C[C@@H](COCc2ccccc2)Oc2cc(N3CCC[C@H]3CO)ccc2S1(=O)=O,20.1%,4.1%
CCOC(=O)C1=CCC(c2ccccc2C(F)(F)F)N(S(=O)(=O)c2ccc(C)cc2)C1 (stereo not drawn),5.2%,-12.2%
CN1C(=O)C2C[C@@]3(Br)c4ccccc4N(OOSc4ccccc4)[C@H]3N2C(=O)[C@@H]1Cc1ccccc1 (stereo partly drawn),0.5%,-4.2%
O=C(Nc1nnc([C@@H]2C[C@H](O)[C@@H](CO)O2)s1)c1c(F)cccc1F,-6.5%[18.4 µM],-12.1%
CC(=O)NC(c1ccccc1)c1nc(-c2cc3ccccc3o2)cs1 (stereo not drawn),17.0%,7.7%
COc1ccc(NC(=O)C2(C)CCN2Cc2ccc3ccccc3c2)cc1OC (stereo not drawn),-22.9%,?
CCCOc1ccc(F)cc1-c1cc(C(=O)NCc2cccc(C(F)(F)F)c2)[nH]n1,-5.0%,-20.6%
Cc1ccc2nc(C3CCCCC3)c(Cc3ccsc3)n2c1,?,-15.9%
